Screens: PubChem BioAssay, several laboratories
Yeast UUG start = yeast start codon fidelity modulation; S. cerevisiae UUG-firefly luciferase reporter, luminescence/redox ratio; 350,000 compounds, 0.13% hits; activity score, % at 18.7 µM; AID 602363;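 active = replicate mean at a twofold rise or more, about +100% in these data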;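 also: firefly luciferase made from a UUG start codon reports start codon fidelity; reporter light over untreated wells divided by growth signal over untreated wells; some hits fall short of that in this replicate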
PABP polyA inh = blocks human PABP binding to poly(A) RNA; P11940; fluorescence polarization; inhibition, % at 35 µM; 290,000 compounds, 1% hits;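 active = 50% or more with normal probe brightness, or confirmed in later tests; inconclusive = above 50% with abnormal brightness, or retests that disagree; inactive = below 50% or failed in later tests; about a fifth of its hits are not listed in these tables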;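 also: calls also rest on retests at 20 µM and on dose response follow-up; controls were probe without protein and protein plus probe with vehicle; some compounds called inactive have numbers as strong as hits; many hits fall short of the cut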
MT1-MMP act inh = blocks activation of human MT1-MMP. P50281. HT1080 RFP-PRO-GFP cells, GFP/RFP ratio fluorescence, overnight; percent of plate control window, DMSO zero. GFP/RFP ratio change, % at 20 µM. 360,000 compounds, 0.061% hits;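 active = GFP/RFP ratio change of at least 30% with cell ATP level not reduced by more than half and red fluorescence within 50% of control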; also: strong numbers were not always called active
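Assay system: HT1080 cells carrying an RFP-PRO-GFP reporter | Dosing: Single dose of 20 µM compound, 1% DMSO final | Incubation: Cells overnight before dosing, compound overnight, 37 °C, 5% CO2 | Evaluation: GFP/RFP fluorescence ratio | Control set: DMSO and RFP-L50D-GFP cell wells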
Rce1 inh = blocks yeast Ras-converting enzyme; Q03530; yeast membranes, quenched prenylated peptide cleavage fluorescence; calls only; 290,000 compounds, 0.27% hits;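 active = fall in fluorescence gain of 50% or more versus controls, with final raw signal at or below 3038400; inconclusive = same 50% fall but final raw signal above 3038400; inactive = fall in fluorescence gain under 50%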;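 also: plate controls were neutral control wells for no effect and wells lacking membranes for full effect; tested at 10 µM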
Target sequence (Q03530 whole entry, looked up): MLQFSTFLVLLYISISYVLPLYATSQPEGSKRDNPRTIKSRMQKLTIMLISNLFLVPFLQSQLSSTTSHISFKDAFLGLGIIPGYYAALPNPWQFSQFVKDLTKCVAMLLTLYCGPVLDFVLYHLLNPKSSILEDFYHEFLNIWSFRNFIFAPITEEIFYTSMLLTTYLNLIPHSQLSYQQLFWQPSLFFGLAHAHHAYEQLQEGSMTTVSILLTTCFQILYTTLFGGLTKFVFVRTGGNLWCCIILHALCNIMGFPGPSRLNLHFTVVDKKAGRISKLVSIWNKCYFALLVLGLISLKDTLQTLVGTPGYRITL
Env fusion inh = inhibitors of HIV Env-mediated cell fusion; HeLa-JRFL Env/CEM21 cell fusion, luciferase; inhibition, % at 12.3 µM; 360,000 compounds, 1.1% hits; AID 651610;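 active = mean replicate inhibition score of at least 50 and every replicate individually at or above 50; inconclusive = only one of the two criteria met; inactive = mean below 50 and not all replicates reaching 50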;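 also: 0% = plate neutral controls and 100% = maraviroc near 300 nM; one replicate is shown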
eIF4H FP inh = inhibitors of RNA binding by human eIF4H | Q15056 | eIF4H fluorescence polarization binding assay | inhibition, % at 35 µM | 290,000 compounds, 0.94% hits;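 active = 50% or more with normal probe brightness, or confirmed in later tests; inconclusive = above 50% with abnormal brightness, or retests that disagree; inactive = below 50% or failed in later tests; about a fifth of its hits are not listed in these tables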;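 also: calls also rest on retests at 20 µM and on dose response follow-up; 0% = protein and probe with vehicle and 100% = probe without protein; strong numbers were not always called active; many hits fall short of the cut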
CSC inhib = blocks cancer stem cells; cancer stem cell-like cells viability, luminescence; inhibition, % at 7.5 µM; 300,000 compounds, 1.1% hits;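 active = mean at 75% or more and at least half the replicates too; inconclusive = mean and replicates disagree; tested in HMLE shEcad cells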;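 also: 0% = median of negative and 100% = median of positive control wells; the first replicate is given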
eIF4H FP inh retest = recorded beside eIF4H FP inh, whose call it bears; inhibition, %; compound at 20 µM; confirmation average;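 mean of two retest wells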
PABP polyA inh retest = second read-out of PABP polyA inh, no call of its own (marks repeat the call); inhibition, %; compound at 20 µM; confirmation repeats;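 mean of two retest wells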
MT1-MMP act inh RFP = recorded beside MT1-MMP act inh, whose call it bears; RFP signal change, %; measured here: RFP expression control read;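 0 = vehicle wells; hits needed this value within 50% of zero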
Starred values were filed as active, the others as inactive; i = inactive; ? = inconclusive; . = not tested or not shown; & = joins results of further samples.

SMILES	Yeast UUG start	PABP polyA inh	MT1-MMP act inh	MT1-MMP act inh RFP	Rce1 inh	Env fusion inh	eIF4H FP inh	CSC inhib	others
COc1ccc(CN2CCN(C3CCOCC3)CC2CCO)c(C)c1C (stereo unspecified)	-9	-2	0	4	i	20	5	-9
CN1CCN(CCCNC(=O)c2ccc(/C=C3\Sc4ccccc4N(Cc4ccc(F)cc4)C3=O)cc2)CC1	20	3	-13	-7	i	8	4	.
CCOC(=O)C1NC(=O)CC1c1ccccc1 (stereo unspecified)	-14	-7	-3	-1	i	-46	0	0
O=C(NCC1CCCN1S(=O)(=O)c1cccs1)C(=O)Nc1ccccc1F (stereo unspecified)	-6	.	9	-2	.	-3	.	.
O=C(CN1CCN(c2ccccn2)CC1)NC1CCCCC1	-23	-8	1	4	i	.	-1	-19
O=C(Nc1nc(-c2ccc(S(=O)(=O)N3CCCCCC3)cc2)cs1)c1cccs1	-7	-2	.	.	i	28	-6	-16
O=C(CSc1ccccc1)N1CCN(C(=O)c2ccco2)CC1	.	4	3	4	i	-6	-12	5
O=C(Nn1cnnc1)c1ccc(Cl)c([N+](=O)[O-])c1	-17	-2	-1	3	i	-8	1	-8
CCCCOC(=O)CCn1c(=S)oc2ccccc21	-8	10	3	6	i	.	1	-3
O=C(Nc1ccc(Cl)cc1N1CCOCC1)C1CCCO1 (stereo unspecified)	-11	-13	-1	-1	i	28	-15	-3
CCCn1nc(NC(=O)C2CCCO2)c2cc3cccc(C)c3nc21 (stereo unspecified)	17	0	3	-6	i	3	0	-4
COc1ccc(N2CC(C(=O)N[C@@H](CC(C)C)C(=O)NC3CCCCC3)CC2=O)cc1 (stereo partly specified)	.	10	-4	-3	i	-3	-5	-3
O=C(C(Cl)Cl)N1CC2CCC(CC2)C1	-22	.	2	1	.	-4	.	.
CN1CCN(C(=O)/C(=C/c2ccc(F)cc2)NC(=O)c2ccccc2)CC1	-13	-2	0	-3	i	4	4	.
Cc1ccc(S(=O)(=O)c2nc(-c3ccccc3F)oc2N2CC(C)OC(C)C2)cc1 (stereo unspecified)	0	-13	-9	-3	i	18	-9	14
O=C(Nc1ccccc1)NN1CC(=O)N(c2ccc(Cl)cc2)CC1=O	.	-3	4	2	i	0	-5	-7
CCn1c(COc2ccc(C)cc2)nc2ccccc21	.	-8	-3	-3	i	-68	2	0
COc1ccccc1N(CCC#N)C(=O)CSc1ccc2c(c1)OCCO2	3	4	1	5	i	-13	-2	-16
Cc1ccc(CSCC(=O)N(C)CC(=O)Nc2ccc(C)cc2)cc1	4	.	-2	-3	i	-6	.	6
O=C1[C@H]2[C@@H](c3ccc(Cl)cc3)N3C(=O)N(c4cccc(Cl)c4)C(=O)[C@@]3(Cc3ccc(Cl)cc3)[C@H]2C(=O)N1C1CCCCC1	-3	.	-1	-8	i	-1	.	21
COc1cc(/C=N/NC(=O)c2cccnc2)ccc1OC(=O)c1ccc2c(c1)OCO2	-1	3	2	4	i	-95	-1	-6
CCOC(=O)c1cccc(S(=O)(=O)N(CCO)Cc2cc3cc(OC)c(OC)cc3[nH]c2=O)c1	-9	-2	7	0	i	-31	1	2
O=C(NNC(=O)c1ccccc1Br)c1cccc(Cl)c1	-13	-2	3	-2	i	-31	6	6
CCOC(=O)/C=c1\s/c(=C(\C#N)C(=O)OCC)n(-c2ccccc2)c1=O	-15	0	3	5	i	6	58	.	eIF4H FP inh retest=-2;PABP polyA inh retest=0
CCc1ccc2oc(-c3cccc(N)c3)nc2c1	-61	0	-1	0	i	i	7	-3
CCN1C(=O)[C@H]2[C@H]3CN=C(SCc4ccc(C)cc4)N3[C@@](Cc3ccccc3)(C(=O)OC)[C@H]2C1=O	-32	.	-1	2	.	-24	.	.
Cc1ccc(-c2nnc(NC(=O)c3c(F)cccc3Cl)s2)cc1	-4	10	2	2	i	13	3	15
CC(C)C[C@H](NC(=O)[C@@H](O)[C@H](N)Cc1ccccc1)C(=O)O	.	.	.	.	i	4	.	-9
O=C(O)CNC(=O)c1ccc(NC(=O)/C(=C/c2ccccc2)NC(=O)c2ccccc2)cc1	-20	-2	2	2	i	17	3	-12
COC(=O)[C@]1(C)N[C@H](CN(C)C(=O)C2CCCCC2)[C@@H]2C(=O)N(C)C(=O)[C@@H]21	-22	.	2	4	.	-21	.	.

Random excerpt: 3 entries already listed
SMILES	Yeast UUG start	PABP polyA inh	MT1-MMP act inh	MT1-MMP act inh RFP	Rce1 inh	Env fusion inh	eIF4H FP inh	CSC inhib	others
COC(=O)[C@]1(C)N[C@H](CN(C)C(=O)C2CCCCC2)[C@@H]2C(=O)N(C)C(=O)[C@@H]21	-22	.	2	4	.	-21	.	.
O=C(Nc1ccc(Cl)cc1N1CCOCC1)C1CCCO1 (stereo unspecified)	-11	-13	-1	-1	i	28	-15	-3
COc1ccc(N2CC(C(=O)N[C@@H](CC(C)C)C(=O)NC3CCCCC3)CC2=O)cc1 (stereo partly specified)	.	10	-4	-3	i	-3	-5	-3

Going on with the list:
SMILES	Yeast UUG start	PABP polyA inh	MT1-MMP act inh	MT1-MMP act inh RFP	Rce1 inh	Env fusion inh	eIF4H FP inh	CSC inhib	others
O=C(NCC1CCC(C(=O)O)CC1)c1cccnc1 (stereo unspecified)	-29	0	6	3	i	-66	4	-9
O=C1NCCCCC1NC1CC(=O)N(c2ccccc2)C1=O (stereo unspecified)	-30	-2	3	3	.	.	-2	-3
CC1=NN(c2ccccc2)C(=O)/C1=C/C=C/c1ccccc1	.	-9	-21	-18	i	-261	6	84*
COc1ccc(C2=C(C)C(N3CCN(C(=O)c4ccco4)CC3)=NS2(=O)=O)cc1	-7	-2	-2	-2	i	7	27	-12
CN=C1CC(C)(C)CC(=O)/C1=C(/O)CCC(=O)NC	-9	10	1	6	i	.	-6	-5
CC(=O)Nc1cccc(-c2ccnc3c2CC(C(=O)NCc2ccco2)O3)c1 (stereo unspecified)	-11	.	8	-8	.	-44	.	.
CCN1C(=O)C2C(C1=O)N1C(c3ccccc3)C3C(=O)N(CC)C(=O)C3N1C2c1ccccc1 (stereo unspecified)	-8	-2	0	3	i	.	4	3
O=C(Nc1ccc(N2CCN(Cc3ccccc3)CC2)cc1)c1cccnc1	-20	-4	2	-2	i	.	-4	.
CN(C(=O)c1ccc(NC(=O)Cc2ccc(NC(=O)C3CCCN(C(=O)C4CCCC4)C3)cc2)cc1)C1CC1 (stereo unspecified)	2	.	2	-3	.	10	.	-19
CC(C)(C(=O)N1CCC1(C)C(=O)NS(=O)(=O)c1ccc(C#N)cc1)c1ccccc1 (stereo unspecified)	-16	.	-3	2	.	-4	.	.
CCOc1ccccc1C1C(C(N)=O)=C(C)Nc2nc(-c3ccccc3Cl)nn21 (stereo unspecified)	-2	2	4	4	i	16	-4	5
O=C(Cn1nnc(-c2ccc(CN3CCOCC3)cc2)n1)N(c1ccccc1)c1ccccc1	.	0	-2	-2	i	16	-6	62
COc1ccc([N+](=O)[O-])cc1NC(=O)Cc1noc2ccccc12	-14	0	9	4	i	2	-5	-10
COc1ccc(C(=O)Nc2ccc(-c3ccc(NC(=O)c4ccc(OC)cc4)c(OC)c3)cc2OC)cc1	-8	-17	2	-1	i	0	-7	-10
Cc1ccnc(NC(=O)Nc2ccc(F)cc2)c1	-20	-6	-4	-3	i	.	-12	0
CC1(C(=O)Nc2cccc3ncccc23)CCN1C(=O)CCc1ccccc1 (stereo unspecified)	-18	.	-2	0	.	13	.	.
COc1ccccc1CC(=O)Nc1cccc2ccccc12	-2	2	-3	-6	i	5	-5	-18
c1cc(CNc2ccc(N3CCOCC3)cc2)ccn1	.	-6	6	6	i	.	-2	-7
CCC(=O)Nc1nc(-c2ccc3c(c2)CC(C)N3S(C)(=O)=O)cs1 (stereo unspecified)	2	-1	2	-7	i	-8	-4	-1
CCOc1ccc(-c2noc(CCC(=O)NCCc3ccccc3)n2)cc1OC	-3	11	-3	-2	i	-53	0	-5
COc1ccc2nc(NC(=O)CCN3C(=S)NC(C)(C)CC3C)sc2c1 (stereo unspecified)	-25	9	0	-1	i	-19	-7	-2
CSc1ccc(CN2CCN(CCC(C)C)C(CCO)C2)cc1 (stereo unspecified)	-6	-5	3	2	i	-6	0	49
Cc1cc(C)c(CN2CCC(n3nccc3NC(=O)C3CCOC3)CC2)cc1C (stereo unspecified)	-10	-10	1	-1	.	.	-8	0
CCn1c2ccccc2c2cc(NC(=O)c3cccc([N+](=O)[O-])c3)ccc21	-15	.	6	2	i	-7	.	88*
Cn1c(=O)c(=O)n(C)c2cc(S(=O)(=O)N3CCCC3C(=O)Nc3ccccc3F)ccc21 (stereo unspecified)	-8	-7	-1	2	i	15	7	.
Cc1cc(C)c(C#N)c(N)n1	.	0	-4	-2	i	-2	-4	-7
COCc1c(C(=O)N/N=C(\C)c2ccc(Cl)s2)nnn1-c1nonc1N	4	0	-2	0	i	-18	-3	.
Cc1ccccc1OCc1nnc(SCC(=O)Nc2ccc3c(c2)oc2ccccc23)n1C	-7	11	-1	0	i	-85	0	4
C[C@H](CO)N1C[C@H](C)[C@@H](CN(C)Cc2ccc(-c3ccccc3)cc2)Oc2c(NS(=O)(=O)c3ccccc3)cccc2C1=O	11&3	.	5	-7	.	-45	.	-11
O=C(Nc1ccc(F)cc1)Nc1cccc(Br)c1	-6	.	5	-1	i	-8	.	31
CCOC(=O)C1=C(C)NC(=O)NC1c1ccc(-c2ccc(Cl)cc2)o1 (stereo unspecified)	.	-17	-1	-2	i	31	2	-1
CCOC(=O)c1sc(NC(=O)Nc2ccccc2)cc1C	.	12	3	-10	i	i	2	33
Cc1cccc(-n2c(=O)c3c(C)c(C)sc3n(CC(N)=O)c2=O)c1	.	6	1	0	i	16	16	-9
CCOC(=O)C1=NOC(COc2ccccc2C=O)C1 (stereo unspecified)	.	67*	1	5	i	11	6.7*	-5	eIF4H FP inh retest=76*;PABP polyA inh retest=58*
COc1ccc(C(=O)NCCS(=O)(=O)N(C)C2CCCCC2)cc1	-12	.	-5	-4	i	-26	.	4
CCCN(CCC)c1ccc(/C=C/c2ccc3cc(OCC)ccc3n2)cc1	-2	41*	11	33	i	-8	?	11	PABP polyA inh retest=83*
Cc1ccc(C)c2c(N)c3c(nc12)CCCCC3 (tested in a mixture with another compound)	.	-15	-1	-1	i	6	-5	3
Cc1sc(N/N=C/c2ccco2)nc1-c1ccccc1	.	-1	-2	-1	i	-31	-4	32
CCc1ccc(OCC(=O)Oc2ccc([N+](=O)[O-])cc2)cc1	-8	4	2	2	i	12	-3	13
COc1ccc(CNC(=O)C(=O)NC2CC(C)(C)NC(C)(C)C2)cc1	.	-6	0	1	i	4	3	3
COc1cc(/C=C(\NC(=O)c2ccccc2)C(=O)Nc2cccc(O)c2)c([N+](=O)[O-])cc1OC	4	-2	19	5	i	.	0	2
CN1CCN(c2nc(C(N)=O)cc(-c3ccccc3)n2)CC1	-6	11	-6	1	i	-107	8	-17
Cc1nn(-c2ccccc2)c(Cl)c1C(=O)OC(C)C(=O)Nc1ccc2c(c1)OCO2 (stereo unspecified)	-2	3	1	1	i	14	0	16
CCOc1cc(C(=O)NC(C)C2CCCO2)cc(OCC)c1OCC (stereo unspecified)	-5	3	0	1	i	19	-4	0
COc1cccc(CNC(=O)CN2C(=O)COc3ccc(S(=O)(=O)N4CCCCCC4)cc32)c1	-6	5	4	-4	i	3	-8	2
Cc1nc(SCC(=O)NCc2ccco2)c2c3c(sc2n1)CCCC3	-10	6	-3	-4	i	.	-7	0

Only part of the results is shown. The share of hits here may be higher or lower than overall.
